gsp ag – qHTS for Agonist of gsp, the Etiologic Mutation Responsible for Fibrous Dysplasia/McCune-Albright Syndrome: qHTS. AID 624287, 2012. Potency, µM (doses to about 76.9 µM), for inactives: top-dose activation (cAMP increase), actives largely listed as activators. gsp mutant cells, cAMP HTRF, 30 min; control for the full effect not named in the record. 340,000 tested, 0.13% active; active = well fitted activation curve with a large enough effect; inconclusive = small, poorly fitted or top-dose-only effect, or another doubt; inactive = no such curve, though single readings can be large or run the other way; cell line not stated here;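 further: phosphodiesterase inhibitor Ro 20-1724 added with compounds to block cAMP breakdown; potency means the concentration at half of the fitted maximal effect; nearly all actives have a fitted effect of over 60% in size; about a fifth of the inactives were tested at one dose only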
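Cells stably selected in G418 were plated at 2000/well, grown 16-24 hr, then given compounds in DMSO with the PDE inhibitor […] (300 uM solution added) for 30 min at 37C; cAMP was read by HTRF.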
TRPV1 potentiator – HTS Assay for Compounds that Act as Potentiators of the Vanilloid Receptor 1 | TRPV1-expressing cells, Fluo-8 calcium influx, capsaicin EC20 potentiation; host cell line not named in the record; control for the full effect not named in the record | potentiation, % at 8.33 µM | 320,000 tested, 0.02% active | AID 540277, 2011; active means potentiation above 80%; inconclusive means 30% to 80%; inactive means below 30%; further: 0% is about no effect
Target sequence (Q8NER1 whole entry, looked up): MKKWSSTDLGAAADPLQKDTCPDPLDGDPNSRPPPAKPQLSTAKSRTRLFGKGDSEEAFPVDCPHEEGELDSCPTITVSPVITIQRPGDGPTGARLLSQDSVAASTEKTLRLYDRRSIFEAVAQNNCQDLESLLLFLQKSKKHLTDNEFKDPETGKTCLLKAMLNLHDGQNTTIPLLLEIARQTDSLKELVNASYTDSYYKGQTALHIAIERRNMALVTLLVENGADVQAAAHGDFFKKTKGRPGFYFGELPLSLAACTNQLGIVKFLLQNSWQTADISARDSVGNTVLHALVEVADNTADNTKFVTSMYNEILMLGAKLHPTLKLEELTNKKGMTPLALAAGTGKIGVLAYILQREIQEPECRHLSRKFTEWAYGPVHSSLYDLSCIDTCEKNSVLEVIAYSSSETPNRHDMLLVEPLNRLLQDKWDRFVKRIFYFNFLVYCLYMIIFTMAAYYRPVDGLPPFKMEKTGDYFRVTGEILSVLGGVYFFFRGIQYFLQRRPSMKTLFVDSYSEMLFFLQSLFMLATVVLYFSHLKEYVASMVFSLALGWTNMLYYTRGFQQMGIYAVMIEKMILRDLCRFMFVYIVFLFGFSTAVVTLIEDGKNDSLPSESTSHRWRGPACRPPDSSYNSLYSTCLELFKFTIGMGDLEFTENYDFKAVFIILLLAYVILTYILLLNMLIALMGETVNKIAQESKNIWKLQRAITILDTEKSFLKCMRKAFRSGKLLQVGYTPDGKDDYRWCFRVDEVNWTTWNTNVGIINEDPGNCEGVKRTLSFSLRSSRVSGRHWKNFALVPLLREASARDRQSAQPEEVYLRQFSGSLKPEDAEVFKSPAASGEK
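TRPV1-expressing cells were cultured overnight at 35.5C and loaded with Fluo-8 calcium dye for 40 to 90 min at room temperature. After a 10 s baseline, compound was added and calcium influx was read kinetically for 3 min (ex 480/em 520 nm).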
Menin-MLL FL inh – qHTS Assay for Inhibitors Targeting the Menin-MLL Interaction in MLL Related Leukemias: Competition With Fluorescein Labeled MLL-derived Peptide; 290,000 tested, under 10 active; Fluorescence polarization, fluorescein-MLL peptide displacement from menin; FP activity change, % at 61.4 µM; inconclusive = falling polarisation curve, or a change in total fluorescence; inactive = total fluorescence flat and polarisation flat or rising; no compound was filed as active; the % refers to the polarisation; negative = inhibition;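 further: % of control where 0% means no effect; inhibitors lower the polarisation; unlabelled MLL peptide was the positive control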
TRPML1 inh – qHTS for Inhibitors of the Human Mucolipin Transient Receptor Potential 1 (TRPML1); Mucolipin-1 (Homo sapiens), Q9GZU1; TRPML1-inducible cells, Ca2+ dye fluorescence, FDSS; hits give low values; inhibition of EC80 agonist-evoked calcium signal; activity change, negative = inhibition, % (test concentration not listed); 390,000 tested, 0.02% active; in the data active means activity change below about -50%; inconclusive means about -30% to -50%; inactive means above about -30%;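 further: stimulus is agonist 54-4 at its EC80 concentration; on the % scale 0 is the no-effect control and ±100 the full control effect; compound concentration not given in the record; the text of the record puts the active cut at -80%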
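Calcium fluorescence in TRPML1-DL cells induced overnight with Tet: a 110 s read after compound pin addition, then a 110 s antagonist read after challenge with 54-4 at 4 uM final (EC80).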
Sfp PPTase inh – qHTS Assay for Inhibitors of Bacillus subtilis Sfp phosphopantetheinyl transferase (PPTase) | 4'-phosphopantetheinyl transferase ffp (Bacillus subtilis), Q9F4F7 | Potency, µM, without a hit: max response, negative = inhibition, actives largely listed as inhibitors | 310,000 tested, 3.5% active | AID 1490, 2009 | Biochemical Sfp PPTase activity, qHTS; active means well fitted inhibition curve with a large enough effect; inconclusive means small, poorly fitted or top-dose-only effect, or another doubt; inactive means no such curve, though single readings can be large or run the other way;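 further: the enzyme is Sfp with the accession as filed and its product quenches rhodamine fluorescence; potency means the concentration at half of the fitted maximal effect; 0% = enzyme reaction without inhibitor and -100% = no enzyme wells; top concentration of the series not given in the record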
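Compounds were incubated with enzyme (final 15 nM) for 15 min at room temperature before substrate addition started the reaction. Fluorescence at 525 nm excitation, 598 nm emission was recorded immediately and after 30 minutes.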
gsp antag – qHTS for Antagonists of gsp, the Etiologic Mutation Responsible for Fibrous Dysplasia/McCune-Albright Syndrome: qHTS | gsp-mutant cells, cAMP HTRF, 30 min; control for the full effect not named in the record | Potency, µM (top dose mostly 76.9 µM), inactives show at the highest dose activity change, negative = inhibition, hits mostly inhibitors | 340,000 tested, 0.4% active | AID 624288, 2012; active = falling curve of any shape with a large fitted effect; inconclusive = falling curve, mostly with a smaller effect; inactive = flat or rising curve; cell line not stated here;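 further: intracellular cAMP measured with PDE inhibitor Ro 20-1724 present during compound exposure; potency means the concentration at half of the fitted maximal effect; on the % scale 0 is the no-effect control and ±100 the full control effect; nearly all actives have a fitted effect of over 65% in size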
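HTRF cAMP measurement after 30 min RT detection following 30 min, 37C compound treatment alongside […] (added as 300 uM solution) in G418-selected cells seeded at 2000/well and grown 16–24 h.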
ClpP mod – qHTS Assay for Activators of ClpP; ATP-dependent Clp protease proteolytic subunit (Bacillus subtilis (strain 168)), P80244; purified B. subtilis ClpP, FRET peptide cleavage, 20 min; Potency, µM (titrated, usually from 57.5 µM), inactives show at the top dose activity change, negative = active; 340,000 tested, 1.9% active; active = well fitted falling curve with a large enough effect; inconclusive = small, poorly fitted or top-dose-only effect; inactive = no such curve, though single readings can be large or run the other way; further: potency means the concentration at half of the fitted maximal effect; the source files actives as falling curves though it sought activators and does not explain the sign; nearly all actives have a fitted effect of over 65% in size; many hits overshoot -100%
Target sequence (P80244 whole entry, looked up): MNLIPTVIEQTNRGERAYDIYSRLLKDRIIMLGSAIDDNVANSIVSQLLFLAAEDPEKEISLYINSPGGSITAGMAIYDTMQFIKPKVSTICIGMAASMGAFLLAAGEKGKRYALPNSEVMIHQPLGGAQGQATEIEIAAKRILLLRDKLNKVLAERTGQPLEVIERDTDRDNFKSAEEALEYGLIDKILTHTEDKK
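Buffer: 100 mM Tris/HCl pH8, 100 mM KCl, 0.05% low protease BSA, 2.5% glycerol, 0.01% Tween-20. ClpP 10 microg/mL final; 20 min RT; delta FRET normalized to ADEP and DMSO controls.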
Numbers without * were called inactive; ? = inconclusive; . = not tested or not shown; & = joins results of further samples; [ ] = another dose, or the depositor's remark.

Values run as follows: gsp ag	TRPV1 potentiator	Menin-MLL FL inh	TRPML1 inh	Sfp PPTase inh	gsp antag	ClpP mod
Cc1ccc(NC(=O)CSC2=NCCN2)cc1
→ -21%	-1	13	22	12%	15%	1.4%
Cc1onc(-c2ccccc2Cl)c1C(=O)N1CCC(C)CC1
→ -3%[15.4 µM]	17	2.9	-4	18%	7%	.
COc1ccc(OC)c(/C=C/C(=O)N2CCN(S(=O)(=O)c3ccc(C)cc3C)CC2)c1
→ ?	6	.	-5	.	-19%	?
COC(=O)C1CCN(c2ccc([N+](=O)[O-])cc2[N+](=O)[O-])CC1
→ -5%	13	-2.1	-13	-2%	-14%	-1.0%
COc1cc(-c2nc(-c3cccnc3)no2)cc(OC)c1OC
→ 3%	-4	1.6	23	-4%	4%	-0.8%
CCOC(=O)c1c(NC(=O)COC(=O)c2ccc([N+](=O)[O-])cc2)sc(C(=O)N(C)C)c1C
→ ?	0	.	5	.	-28%	2.0%
O=C(CCc1ccccc1)Nc1ccc(F)c([N+](=O)[O-])c1
→ 2%[15.4 µM]	-38	-4.6	12	2%	-16%	.
O=C(COc1cccnc1[N+](=O)[O-])Nc1cccc(S(=O)(=O)N2CCCCC2)c1
→ 6%	-8	6.9	24	3%	24%	0.9%
CCc1ccccc1NC(=O)NNC(=O)CCc1ccccc1
→ -25%	16	0.7	-18	12%	8%	1.0%
Cn1nc(C(F)(F)F)c(-c2ccccc2)c1NC(=O)CSCC(=O)O
→ 12%[15.4 µM]	13	4.1	-1	0%	6%	.
Cc1c(C(=O)Nc2ccccc2N2CCOCC2)sc2nc3n(c(=O)c12)CCC3
→ .	-14	-2.0	.	15%	.	.
COc1ccc(-c2nc(N3CCCC3)[nH]c(=O)c2C#N)cc1
→ 12%	-5	0.9	11	11%	1%	-6.8%
CC(C)c1ccc(NC(=O)NC2CCN(CC(=O)Nc3cccc4ccccc34)CC2)cc1
→ 5%	4	-0.5	6	14%	10%	?
O=C(O)C(O)C(O)c1nc2ccccc2[nH]1 (stereo not given)
→ 14%[15.4 µM]	-2	1.5	15	8%	-3%	.
COc1ccc(S(=O)(=O)N2CCC(C(=O)N3CCN(C)CC3)CC2)cc1OC
→ 11%[15.4 µM]	2	.	-12	14%	7%	.

The list goes on.
Values run as follows: gsp ag	TRPV1 potentiator	Menin-MLL FL inh	TRPML1 inh	Sfp PPTase inh	gsp antag	ClpP mod
Cc1ccc(S(=O)(=O)N(CCO)Cc2cc3ccc(C)c(C)c3[nH]c2=O)cc1
→ -1%	16	3.2	-7	-12%	-26%	-30%
COc1ccc2nc3oc(C(=O)N4CCN(c5cccc(Cl)c5)CC4)cc3cc2c1
→ -44%	-7	7.7	58	11µM*	3%	-1.5%
CN(C)c1cccc(C(=O)N/N=C/c2ccoc2)c1
→ 7%[15.4 µM]	.	.	-28	.	?	-0.8%
CC(C)(C)NC(=O)C[C@H]1C[C@H](C(=O)N2CCCCC2)[C@@]2(CCc3ccccc3)c3[nH]c4cc(-c5ccco5)ccc4c3CCN2C1=O
→ .	.	.	15	.	-5%	3.5%
COc1ccc(C2OCC(C)([N+](=O)[O-])CO2)cc1 (stereo not given)
→ 0%[15.4 µM]	.	.	5	.	7%	-1.8%
CCS(=O)(=O)c1nc(S(=O)(=O)c2ccc(Cl)cc2)c(N2CCC(O)CC2)s1
→ 60%	-7	.	-3	2%	7%	0.2%
CCC(C)C(NC(=O)OCc1ccccc1)C(=O)NC(Cc1ccc(O)cc1)C(=O)OC (stereo not given)
→ 10%[15.4 µM]	0	0.8	-2	-14%	-6%	0.7%
Nc1nonc1-c1noc(CCCN2C(=O)c3ccccc3C2=O)n1
→ ?	6	-2.5	0	-7%	12%	-0.1%
CCN(Cc1cc2cc(C)ccc2[nH]c1=O)C(=O)c1cccc([N+](=O)[O-])c1
→ -8%	6	-1.1	-9	17%	0%	-1.7%
O=C(NCCO)C(=O)NCC1OCCCN1S(=O)(=O)c1cccs1 (stereo not given)
→ 12%	-7	-3.1	6	1%	9%	2.1%
NC(=O)c1cc2cc([N+](=O)[O-])ccc2oc1=O
→ -35%	0	-2.9	36	16%	?	1.2%
CCOC(=O)Cc1csc(NS(C)(=O)=O)n1
→ ?	-1	2.7	-12	-12%	1%	-1.7%
COc1ccc(CCNC(=O)CCC(=O)N2CCOc3ccc(C)cc32)cc1OC
→ 28%	8	0.7	0	7%	0%	-1.5%
Cc1[nH]nc2c1C(c1c[nH]c3ccccc13)C(C#N)=C(N)O2 (stereo not given)
→ 11%[15.4 µM]	0	-0.1	-7	16%	0%	.
Cc1nc2c(cnn2-c2ccccc2)c(=O)[nH]1
→ -6%[15.4 µM]	0	-6.0	-7	24%	14%	.

Next entries
Values run as follows: gsp ag	TRPV1 potentiator	Menin-MLL FL inh	TRPML1 inh	Sfp PPTase inh	gsp antag	ClpP mod
Cc1cc(C)n2nc(SCC(=O)Nc3ccccc3C)nc2n1
→ -9%[15.4 µM]	0	.	15&0	12%	10%	0.3%
Cc1ccc2oc(C(=O)Nc3nonc3C)c(C)c2c1
→ -3%	-21	-2.5	10	7%	-10%	-0.5%
CCc1ccc(C2C3=C(CC(C)(C)CC3=O)Nc3c2c(=O)[nH]c2nc(C)nn32)cc1 (stereo not given)
→ -50%[inhibitor]	0	2.6	0	12%	-15%	-12%
COc1ccc(-c2cc(C(F)(F)F)nc(NCc3cccs3)n2)cc1
→ 0%[15.4 µM]	10	4.3	24	-6%	-8%	1.6%
CCOc1ccc(CN2CCN(c3cc(C)nc4c5c(C)cc(C)nc5nn34)CC2)cc1
→ .	12	0.2	.	11%	.	.
COc1cc2c(cc1OC)C(C(=O)O)C(c1cc(Br)c(O)c(OC)c1)N(C)C2=O (stereo not given)
→ 1%	-4	0.4	-3	-8%	4%	1.9%
CCCCn1c(N)c(N(CCOC)C(=O)COC(=O)COc2ccccc2C#N)c(=O)[nH]c1=O
→ 3%[15.4 µM]	-1	.	1	.	1%	-3.4%
COc1ccc(-c2nc(CSCC(=O)N3CCN(c4cccc(C)c4)C(C)C3)c(C)o2)cc1OC (stereo not given)
→ -71%[inhibitor]	-20	4.4	3	-28%	?	-18%
COCCNCC1C(Oc2ccc(Cl)cc2)C(=O)N1c1ccccc1C (stereo not given)
→ 0%[15.4 µM]	6	-5.8	26	11%	11%	.
CCCCCCCCCCCC(=O)N/N=C/c1ccco1
→ -5%	-7	4.6	12	23%	11%	-0.2%
CSc1ccc(C2=CC(=O)C[C@H](c3ccc(F)cc3)C2)cc1
→ .	-5	.	4	.	-10%	-18%
O=C(COC(=O)c1ccccc1Cl)NC1CCCCCCC1
→ 20%[15.4 µM]	-4	.	31	.	3%	0.3%
CCCCc1ccc(Nc2nc(CCC)cc(=O)[nH]2)cc1
→ ?	0	4.6	22	14%	-13%	-17%
CCCn1c(SCC(=O)Nc2c(CC)cccc2CC)nnc1C(C)C
→ -3%	-24	1.4	-10	10%	-1%	-0.5%
Cc1ccccc1NC(=O)CSc1nc2[nH]c(=O)cc(O)c2s1
→ 30%	4	.	-10	.	-2%	-4.6%

Remaining list, next part.
Values run as follows: gsp ag	TRPV1 potentiator	Menin-MLL FL inh	TRPML1 inh	Sfp PPTase inh	gsp antag	ClpP mod
Cc1ccccc1CC(=O)N1CCN(C(=O)c2ccco2)CC1
→ -13%	13	-2.8	-10	12%	0%	0.6%
O=C(O)C1=C[C@H](c2ccccc2)C[C@H](OCCCCO)O1
→ .	.	.	0	.	-1%	1.6%
CCOc1ccc(N(C(C)C(=O)Nc2ccc(OC)cc2)S(C)(=O)=O)cc1 (stereo not given)
→ -31%[inhibitor]	-1	-1.6	-6	-2%	-2%	0.1%
Nc1nc(-c2cc3c(cc2Cl)OCCO3)cs1
→ 14%[15.4 µM]	14	-0.5	3	2%	-9%	-0.9%
COC(=O)c1c(C)[nH]c(C)c1-c1ccccc1Cl
→ 8%	4	4.3	41	-1%	9%[15.4 µM]	-0.9%
COc1ccc(N2C(=O)CN(Cc3ccc(OC)c(OC)c3)C2=S)cc1
→ 3%	15	1.8	-3	15%	2%	.
Cc1cc(Nc2cccc(C(=O)O)c2)n2ncnc2n1
→ ?	11	-5.2	-6	9%	5%	.
Cc1cccc(Nc2nnc(SCC3CCCCO3)s2)c1C (stereo not given)
→ ?	-5	1.5	6	-7%	8%	10µM*
CCN1C[C@@H]2[C@@H]3C(=O)N(C)C(=O)[C@@H]3[C@](CC)(C1=O)N2C(=O)c1ccc(Cl)cc1
→ -13%	.	.	1	.	7%	1.5%
Cc1c(NS(=O)(=O)c2ccc(S(=O)(=O)c3ccccc3)s2)c(=O)n(-c2ccccc2)n1C
→ 1%[15.4 µM]	0	1.9	-7	-15%	-17%	1.2%
COc1ccc(NC2CCCN(C(=O)CCC(=O)c3ccc(F)cc3)C2)cc1 (stereo not given)
→ ?	-10	-2.6	8	10%	-8%	-0.6%
Cc1ccc(S(=O)(=O)N/N=C\c2ccc(Cl)c([N+](=O)[O-])c2)cc1
→ -29%	9	0.8	-8	20%	?	-0.5%
O=C(COc1ccc(Cl)cc1)N(Cc1ccc(F)cc1)C1CCS(=O)(=O)C1 (stereo not given)
→ -2%	4	-3.2	11	2%	3%	-1.8%
CCOc1cc(/C=N/NC(=O)c2cccnc2)ccc1OC(=O)c1ccco1
→ 0%[15.4 µM]	3	-1.2	7	21%	.	.
CCN(CC(=O)N1CCCC1)S(=O)(=O)c1ccc(Br)cc1
→ 1%[15.4 µM]	-7	-0.8	-13	17%	2%	-1.0%
Oc1ccc(O)c(Cc2nc3ccccc3[nH]2)c1
→ -2%	-3	2.7	19	35µM*	2%	.
O=c1oc2ccccc2c(Nc2ccc(O)cc2)c1[N+](=O)[O-]
→ 13%	4	0.2	-12	-15%	13%	-1.1%
CCOc1cc(/C=N/NC(N)=O)ccc1OC(=O)c1ccc(C)cc1
→ .	-9	2.1	.	3%	.	.
